# GIRK2 act: GIRK2 channel activation | calls only for hits at 25 µM | 63,000 tested, 0.05% active | AID 1259325 | P48051 | HEK293-GIRK2 thallium flux, Thallos fluorescence;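 active = among the strongest 0.2% of first-round signals and kept after retests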;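 note: first round at about 10 µM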
# Target sequence (P48051 whole entry, looked up): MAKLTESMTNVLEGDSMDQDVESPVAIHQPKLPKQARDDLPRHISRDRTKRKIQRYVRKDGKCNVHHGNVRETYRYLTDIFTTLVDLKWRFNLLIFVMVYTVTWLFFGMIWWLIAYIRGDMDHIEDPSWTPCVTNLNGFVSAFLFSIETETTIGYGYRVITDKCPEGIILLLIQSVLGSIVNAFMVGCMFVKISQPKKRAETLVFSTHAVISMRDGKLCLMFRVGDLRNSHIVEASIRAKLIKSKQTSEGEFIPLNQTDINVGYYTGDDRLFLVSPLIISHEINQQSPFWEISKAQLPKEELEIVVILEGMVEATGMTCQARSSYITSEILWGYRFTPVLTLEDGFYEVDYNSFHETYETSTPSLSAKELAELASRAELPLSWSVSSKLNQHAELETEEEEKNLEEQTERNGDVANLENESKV
# Calls only; i = inactive. A portion of the library; rates above refer to the full screens.
canonical_smiles,GIRK2 act
COC(=O)CSc1nnc(-c2cccc(S(=O)(=O)N3CCOCC3)c2)o1,i
Cc1cn2c3c(=O)n(CCc4ccccc4)c(=O)n(C)c3nc2n1Cc1ccccc1,i
COc1ccc(S(=O)(=O)N2CCCOC2CNC(=O)C(=O)NCCC2=CCCCC2)cc1OC (configuration not stated),i
CCOC(=O)c1ccc(NC(=O)Cn2nc(-n3nc(C)cc3C)ccc2=O)cc1,i
O=C1C(CCS(=O)c2ccccc2)C(=O)N(c2ccccc2)N1c1ccccc1 (configuration not stated),i
CC(=O)CC1(O)C(=O)N(CCC(C)C)c2ccc(C)cc21 (configuration not stated),i
O=C(c1ccccc1C(F)(F)F)N1CCC(c2nnc(C3CC3)s2)CC1,i
O=C(Nc1ccccc1C(F)(F)F)N1CCOC(c2ccccc2)C1 (configuration not stated),i
COC(=O)c1ccc2c(=O)n(-c3cc(OC)cc(OC)c3)c(N3CCSCC3)nc2c1,i
CCOc1ccc(NC(=O)C(=O)c2cn(CC(=O)N3CCOCC3)c3ccccc23)cc1,i
CCCCCCCCCCCC(=O)c1nc2ncccc2o1,i
O=C(c1cc(OCc2ccccc2)no1)N1CCOCC1,i
Cc1ccc2nc(-c3ccccc3NC(=O)CCC(=O)O)[nH]c2c1,i
COc1cc(S(=O)(=O)N2CCN(C(=O)c3ccco3)CC2)c(OC)cc1C,i
COc1cccc(S(=O)(=O)NCC(=O)N2CCCCCC2)c1,i
Cc1ccc2nc(-c3ccc(NC(=O)CCCC(=O)O)cc3)[nH]c2c1,i
O=C(NCCc1ccoc1)Nc1ccc(Cl)c(Cl)c1,i
COc1ccccc1OCC(=O)N1CCN(c2ccc(-n3ccnc3)nn2)CC1,i
COc1ccc(S(=O)(=O)NCC(c2ccsc2)N2CCN(C)CC2)cc1F (configuration not stated),i
CC(C)(C)c1ccc(S(=O)(=O)NCC(=O)Nc2cccc(Cl)c2)cc1,i
COc1ccc(N(C)S(=O)(=O)c2ccsc2C(=O)Nc2ccc(F)c(Cl)c2)cc1,i
COc1ccc(S(=O)(=O)N2CCCc3ccccc32)cc1C(=O)O,i
CC(C)N1CCc2c(sc(NC(=O)c3ccco3)c2-c2nc3ccccc3s2)C1,i
O=C(NCC(O)c1ccoc1)c1ccoc1 (configuration not stated),i

# An excerpt of these results, with values ahead of the structure.
GIRK2 act | Structure
i | COc1ccc(S(=O)(=O)N2CCCc3ccccc32)cc1C(=O)O
i | CC(C)N1CCc2c(sc(NC(=O)c3ccco3)c2-c2nc3ccccc3s2)C1
i | O=C(NCC(O)c1ccoc1)c1ccoc1 (configuration not stated)

# (list continues)
canonical_smiles,GIRK2 act
C/C=C/c1ccc(OCC(O)CN2CCN(CC)CC2)c(OC)c1 (configuration not stated),i
CCc1nccn1CC1CCN(C(=O)Cc2cccs2)CC1,i
COc1cccc(NC(=O)CSc2nccn2-c2ccc(C(=O)NCc3ccco3)cc2)c1,i
O=C(CCCn1c(=O)[nH]c2ccccc2c1=O)NCCc1ccccc1Cl,i
CCc1ccc(NS(=O)(=O)c2cccnc2N2CCN(c3ccccn3)CC2)cc1,i
CCOC(=O)N1CCc2c(sc(NC(=O)C(C)C)c2-c2nc3ccccc3s2)C1,i
COc1ccccc1C(=O)Nc1cc(C)nn1-c1nc2ccc(F)cc2s1,i
Cc1cc(C)n(-c2nc(CCNC(=O)C3c4ccccc4Oc4ccccc43)cs2)n1,i
COc1ccc(-c2noc(-c3ccc4c(=O)n(Cc5ccccc5F)c(=O)[nH]c4c3)n2)cc1OC,i
O=C(O)c1ccc(CSc2ncnc3nc[nH]c23)cc1,i
CN(C)C(=O)N1CCN(c2ccc(-c3noc(C(F)(F)F)n3)cn2)CC1,i
Cc1cc(C)cc(Oc2nccn3c(=O)n(CC(=O)Nc4ccc(Cl)cc4F)nc23)c1,i
CC(C)[N+]1(C)C2CCC1CC(OC(=O)C(CO)c1ccccc1)C2 (configuration not stated),i
NC(=O)c1cc(-c2ccncc2)cc(-c2ccccc2)c1N,i
O=C(COc1ccc2c(c1)OCO2)NCCOc1ccc(-c2ccccn2)nn1,i
NC(=O)Cn1ccc2ccccc21,i
Nc1c(C(=O)NCc2ccccc2)c2nc3ccccc3nc2n1/N=C\c1ccncc1,i
CCOC(=O)CCn1c(=O)c2c(nc3n(-c4ccccc4OC)c(C)c(C)n23)n(C)c1=O,i
O=C(NCc1ccc(F)cc1)NCC1CCN(Cc2cccs2)CC1,i
COc1ccccc1C(=O)Nc1ccc2c(c1)CCC(=O)N2Cc1ccccc1,i
CNC(=O)CSc1nnc(N2CCN(C(=O)c3ccccc3C)CC2)s1,i
COc1ccc(/C=C/C(=O)Nc2cnc(N(C)C)nc2)cc1OC,i
Cc1c(C(N)=O)nnn1-c1ccc(F)cc1,i
CC(C)n1c(CN2CCN(C(=O)c3ccco3)CC2)nc2c1c(=O)n(C)c(=O)n2C,i
Cc1ccc2c(c1)N(C(=O)Cn1cccc(S(=O)(=O)N3CCCCCC3)c1=O)CCO2,i
O=C(Cn1nc2c3sccc3ncn2c1=O)Nc1ccc2c(c1)OCO2,i
CC(=O)c1cccc(NC(=O)CSc2nc3c(-c4ccccc4)c[nH]c3c(=O)n2C2CC2)c1,i
CCCCn1c(=O)c2c(nc3n(C(C)CC)c(C)c(C)n23)n(C)c1=O (configuration not stated),i
COc1cccc(S(=O)(=O)Nc2ccc(C(=O)Nc3ccc4sc(C)nc4c3)cc2)c1,i
CCN(CC)C(=O)CCNS(=O)(=O)c1ccc(OC)c(N(C)S(C)(=O)=O)c1,i
Nc1nc(-c2cccc(Cl)c2)c(-c2ccc3ncccc3n2)s1,i
COCCn1c(C2CC(=O)N(CC3CC3)C2)nc2ccccc21 (configuration not stated),i
CCCn1c(=O)c2c(nc3n(-c4ccc(OC)cc4)c(C)cn23)n(C)c1=O,i
Cn1cc(C(=O)N2CCCC2)cc(NC(=O)c2ccc(F)c(F)c2)c1=O,i
O=C(C1CCN(c2nccn3nc(-c4ccccc4)cc23)CC1)N1CCN(Cc2ccccc2)CC1,i
CS(=O)(=O)N1CCN(C(=O)c2cc(-c3ccc4c(c3)OCO4)n[nH]2)CC1,i
Cc1ccc(/C=C/C(=O)c2cc(F)ccc2O)cc1,i
Cc1csc(C(=O)N2CCC(Oc3ncccc3Cl)CC2)c1,i
COC(=O)c1ccc(/C=C2\Oc3cc(OCC(=O)OC(C)(C)C)ccc3C2=O)cc1,i
CC(C)(Oc1ccc(Cl)cc1)C(=O)NCC1CCN(C(=O)c2ccoc2)CC1,i
NC(=O)Cc1csc(NC(=O)c2coc(NC(=O)C3CCC3)n2)n1,i
CC(C)CNc1oc(-c2ccc(S(=O)(=O)N3CCCCC3)cc2)nc1C#N,i
Cn1cccc(C(=O)Nc2ccc3c(c2)CN(C(=O)c2ccco2)CC3)c1=O,i
COc1cccc2sc(N3CC(OC(=O)c4cccnc4)C3)nc12,i
COc1cc(OC)cc(C(=O)Nc2ccc3c(c2)CCC(=O)N3Cc2ccccc2)c1,i
O=S(=O)(c1cccc2c(I)cccc12)N1CCCNCC1,i
O=C1CCCN1c1ccc(NS(=O)(=O)c2cccnc2)cc1,i
Cn1cccc(C(=O)Nc2cnoc2)c1=O,i

# Overlap with the part before: 7 entries, then new ones.
compound	GIRK2 act
CC(C)CNc1oc(-c2ccc(S(=O)(=O)N3CCCCC3)cc2)nc1C#N	i
Cn1cccc(C(=O)Nc2ccc3c(c2)CN(C(=O)c2ccco2)CC3)c1=O	i
COc1cccc2sc(N3CC(OC(=O)c4cccnc4)C3)nc12	i
COc1cc(OC)cc(C(=O)Nc2ccc3c(c2)CCC(=O)N3Cc2ccccc2)c1	i
O=S(=O)(c1cccc2c(I)cccc12)N1CCCNCC1	i
O=C1CCCN1c1ccc(NS(=O)(=O)c2cccnc2)cc1	i
Cn1cccc(C(=O)Nc2cnoc2)c1=O	i
Cc1cc(C)c2c(CCCC(=O)O)c(-c3ccccn3)[nH]c2c1	i
C#CC(C)(CC)OCC(O)CN1C(C)(C)CC(O)CC1(C)C (configuration not stated)	i
Cc1cc(F)ccc1N1C=C(C#N)S(=O)(=O)c2ccc(F)cc21	i
CCc1ccccc1NC(=O)Nc1ccc(Oc2ccc(C)nn2)cc1	i
COc1ccc(CC(=O)N2CCC3(CC2)Nc2ccccc2S(=O)(=O)N3)cc1	i
O=C(Cn1nc2c(c1NC(=O)c1cc3ccccc3o1)CSC2)NCc1ccc(F)cc1	i
CCC(C)NCC(O)COc1ccccc1C(C)CC (configuration not stated)	i
O=C(Nc1ccc(-c2nc3ccccc3o2)cc1)c1ccc(=O)oc1	i
O=C(/C=C/c1ccccc1)NCCCS(=O)(=O)N1CCc2ccccc2C1	i
O=C(Cc1csc(Nc2ncccn2)n1)Nc1cccc(Cl)c1	i
COC(=O)CCn1c(=O)c2c(nc3n(Cc4ccccc4)c(C)c(C)n23)n(C)c1=O	i
COc1cc(C(=O)Nc2ccc(N3CCCCS3(=O)=O)cc2)cc(OC)c1OC	i
O=C(CCn1ccc(=O)[nH]c1=O)NCC1CCS(=O)(=O)C1 (configuration not stated)	i
COc1ccc(-c2ccc(=O)n(CCNC(=O)c3ccc(-n4nc(C)cc4C)nn3)n2)cc1	i
COc1ccc(-c2cc3c(=O)n(CC(=O)Nc4c(C)cc(C)cc4C)ccn3n2)cc1	i
O=C(Cn1cccc(-c2nc(-c3ccc(Cl)cc3)no2)c1=O)Nc1ccccc1C(F)(F)F	i
C[C@@H]1CC[C@@]2(C)[C@@]3(CC[C@@]2(C)C(=O)O3)[C@@]12C[C@H](c1ccoc1)OC2=O	i
O=C(CCC1NC(=O)c2ccccc2NC1=O)NCc1cccs1 (configuration not stated)	i
O=C(CN1CCN(c2ccc(F)cc2)C1=O)NCc1cccs1	i
Cc1ccc(C)c(N2CCN(C(=O)c3ccc(-n4cccn4)nc3)CC2)c1	i
O=C(NCCC(O)c1cccs1)C(=O)Nc1ccc(F)c(Cl)c1 (configuration not stated)	i
COc1cc(OC)cc(N2N=NC3C(=O)N(c4ccc(C)c(Cl)c4)C(=O)C32)c1 (configuration not stated)	i
CC(=O)Nc1ccc(C(=O)Nc2nc3c(s2)COCC3)cc1	i
COc1cccc2cc(C(=O)NCc3cc(-c4ccco4)n(C)n3)oc12	i
CCCCN(CCCC)C(=O)NC1(C)CCS(=O)(=O)C1 (configuration not stated)	i
COC(=O)c1ccc2c(=O)[nH]c3c(C(=O)OC(C)C)c4nc5ccccc5nc4n3c2c1	i
Cc1cn2c3c(=O)n(Cc4cccc5ccccc45)c(=O)n(C)c3nc2n1CCOCCO	i
O=C(CSc1nc2ccccc2o1)N1CCN(C(=O)C2CC2c2cccs2)CC1 (configuration not stated)	i
C=CCNC(=O)N1CCN(CCNC(=O)c2ccc3c(c2)OCO3)CC1	i
CCS(=O)(=O)NCC1CCC(C(=O)NCc2cccnc2)CC1 (configuration not stated)	i
CC1(C)CC(NC(=O)c2cccnc2-c2nc3ccccc3s2)CC(C)(C)N1	i
CCOCC(=O)N(Cc1ccsc1)CC(F)(F)F	i
COc1cc(-c2noc(Cn3ncn4nc(-c5ccccc5Cl)cc4c3=O)n2)cc(OC)c1OC	i
CC(C)(C)c1ccc(NC(=O)N2C3CCC2COC3)cc1	i
CC(C)Sc1ccc(CC(=O)N2CCC(Oc3cnccn3)CC2)cc1	i
C=CCNC(=O)C(=O)NCC1OCCCN1S(=O)(=O)c1ccc(OC)cc1 (configuration not stated)	i
COc1ccc(-c2nnc3c4cnn(-c5ccccc5C)c4ncn23)cc1	i
O=S(=O)(O)CCS	i
COc1cccc2sc(OC3CN(C(=O)Cc4ccc(F)cc4)C3)nc12	i
C/C=C/Cn1c(=O)c2c(nc3n(-c4ccccc4O)c(C)cn23)n(C)c1=O	i
COc1ccc(-n2ccnc(SCc3cccc([N+](=O)[O-])c3)c2=O)cc1	i
O=C(c1cc(-c2ccco2)[nH]n1)N1CC(c2nc(-c3cccc(C(F)(F)F)c3)no2)C1	i
CCn1c(NCC(=O)O)nc2c1c(=O)n(C)c(=O)n2C	i
COc1ccc(OCc2noc(CNC(=O)Cc3ccc(S(=O)(=O)C(C)C)cc3)n2)cc1	i
CCS(=O)(=O)N1CCCc2cc(NC(=O)c3cc(-c4ccc(F)cc4)nn3C)ccc21	i
COc1ccccc1C1(CNC(=O)c2sc(-n3cccc3)nc2C)CCOCC1	i
O=C(Cc1noc2ccccc12)NCCNc1ccc(Nc2cccnc2)nn1	i
COc1cc(-c2nnc(NC(=O)c3cccc(Oc4ccccc4)c3)o2)cc(OC)c1OC	i
COc1ccccc1NC(=O)CN1CCN(Cc2nc3ccccc3n2C)CC1	i
C/C=C/c1ccc(OCCCn2c(C(C)(C)O)nc3ccccc32)c(OC)c1	i
c1ccc(-c2cc(-c3ccc4c(c3)OCCO4)c(-c3ccccc3)nn2)cc1	i
O=C(NCc1cccs1)N1CCN(Cc2nnnn2-c2ccc(Cl)cc2)CC1	i
S=c1[nH]cc(-c2ccc(Cl)c(Cl)c2)n1Cc1ccccc1	i
CCOC(=O)Cc1csc(NC(=O)CN(C)c2nc3c(OC)cccc3s2)n1	i
COCCOC(=O)C1=C(C)NC(=O)NC1c1ccc(OC)cc1 (configuration not stated)	i
O=c1cc(CN2CCN(c3ccccc3)CC2)c2cc3c(cc2o1)OCO3	i

# Pulled one by one from the list above, 3 records:
compound	GIRK2 act
CC(=O)CC1(O)C(=O)N(CCC(C)C)c2ccc(C)cc21 (configuration not stated)	i
COCCn1c(C2CC(=O)N(CC3CC3)C2)nc2ccccc21 (configuration not stated)	i
CC(C)N1CCc2c(sc(NC(=O)c3ccco3)c2-c2nc3ccccc3s2)C1	i

# More compounds
compound	GIRK2 act
COc1cccc(C(=O)Oc2ccc3c(=O)c(-c4nc5ccccc5s4)coc3c2)c1	i
O=C(c1cc2n(n1)CCCO2)N1CCN(c2cccc(C(F)(F)F)c2)CC1	i
COC(=O)Nc1nc2ccc(Oc3ccc(NC(=O)Nc4ccccc4)cc3)cc2[nH]1	i
O=C(NCC1(CO)CC1)c1cc(-c2ccccc2)on1	i
CCOc1ccc2nc(NC(=O)CN3CCN(c4ccccc4F)C3=O)sc2c1	i
N=C1SCC(=O)N1c1ncc(Cc2ccccc2F)s1	i
Cn1c(=N)c(C(=O)NCc2ccco2)cc2c(=O)n3ccccc3nc21	i
